# PABP polyA inh – PABP-poly(A) binding inhibition. AID 2014. PABP-poly(A) RNA binding, fluorescence polarization. inhibition, % at 35 µM. P11940. 1% of 290,000 active;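 active = 50% or more with normal probe brightness, or confirmed in later tests; inconclusive = above 50% with abnormal brightness, or retests that disagree; inactive = below 50% or failed in later tests; about a fifth of its hits are not listed in these tables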;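 note: calls also rest on retests at 20 µM and on dose response follow-up; controls were probe without protein and protein plus probe with vehicle; some compounds called inactive have numbers as strong as hits; many hits fall short of the cut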
# CSC inhib – blocks cancer stem cells | cancer stem cell-like cells viability, luminescence | inhibition, % at 7.5 µM | 1.1% of 300,000 active;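 active = mean at 75% or more and at least half the replicates too; inconclusive = mean and replicates disagree; tested in HMLE shEcad cells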;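 note: 0% = median of negative and 100% = median of positive control wells; the first replicate is given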
# MT1-MMP act inh – MT1-MMP (human) activation inhibition. P50281. HT1080 RFP-PRO-GFP cells, GFP/RFP ratio fluorescence, overnight; percent of plate control window, DMSO zero. GFP/RFP ratio change, % at 20 µM. 0.061% of 360,000 active. AID 651647;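 active = GFP/RFP ratio change of at least 30% with cell ATP level not reduced by more than half and red fluorescence within 50% of control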; note: strong numbers were not always called active
#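 Test system: HT1080 RFP-PRO-GFP cells; Benchmarks: DMSO and RFP-L50D-GFP cell wells; Timing: cells overnight before dosing, compound overnight, 37 °C, 5% CO2; Compound: one 20 µM compound dose with 1% DMSO; Read-out: GFP/RFP fluorescence ratio.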
# UUG fidelity – modulators of start codon recognition fidelity in yeast | S. cerevisiae UUG-firefly luciferase reporter, luminescence/redox ratio | activity score, % at 18.7 µM | 0.13% of 350,000 active;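 active = replicate mean at a twofold rise or more, about +100% in these data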;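 note: firefly luciferase made from a UUG start codon reports start codon fidelity; reporter light over untreated wells divided by growth signal over untreated wells; some hits fall short of that in this replicate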
# Rce1 inh – inhibitors of yeast Ras-converting enzyme; Q03530; yeast membranes, quenched prenylated peptide cleavage fluorescence; calls only; 0.27% of 290,000 active;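 active = fall in fluorescence gain of 50% or more versus controls, with final raw signal at or below 3038400; inconclusive = same 50% fall but final raw signal above 3038400; inactive = fall in fluorescence gain under 50%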;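 note: plate controls were neutral control wells for no effect and wells lacking membranes for full effect; tested at 10 µM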
# Target sequence (Q03530 whole entry, looked up): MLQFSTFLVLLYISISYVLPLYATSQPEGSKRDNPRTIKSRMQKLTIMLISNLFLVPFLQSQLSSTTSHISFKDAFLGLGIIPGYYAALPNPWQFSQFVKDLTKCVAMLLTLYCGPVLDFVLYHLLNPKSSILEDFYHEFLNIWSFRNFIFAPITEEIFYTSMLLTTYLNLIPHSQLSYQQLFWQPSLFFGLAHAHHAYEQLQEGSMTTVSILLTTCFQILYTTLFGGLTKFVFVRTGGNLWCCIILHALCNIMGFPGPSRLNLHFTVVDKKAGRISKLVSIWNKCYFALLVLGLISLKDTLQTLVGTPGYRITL
# HIV Env fusion – inhibitors of HIV Env-mediated cell fusion; HeLa-JRFL Env/CEM21 cell fusion, luciferase; inhibition, % at 12.3 µM; 1.1% of 360,000 active;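 active = mean replicate inhibition score of at least 50 and every replicate individually at or above 50; inconclusive = only one of the two criteria met; inactive = mean below 50 and not all replicates reaching 50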;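 note: 0% = plate neutral controls and 100% = maraviroc near 300 nM; one replicate is shown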
# eIF4H FP inh – inhibitors of RNA binding by human eIF4H | 0.94% of 290,000 active | AID 2012 | inhibition, % at 35 µM | Q15056 | eIF4H fluorescence polarization binding assay;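 active = 50% or more with normal probe brightness, or confirmed in later tests; inconclusive = above 50% with abnormal brightness, or retests that disagree; inactive = below 50% or failed in later tests; about a fifth of its hits are not listed in these tables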;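 note: calls also rest on retests at 20 µM and on dose response follow-up; 0% = protein and probe with vehicle and 100% = probe without protein; strong numbers were not always called active; many hits fall short of the cut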
# eIF4H FP inh retest – recorded beside eIF4H FP inh, whose call it bears; inhibition, %; compound at 20 µM; confirmation average;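 mean of two retest wells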
# PABP polyA inh retest – second read-out of PABP polyA inh, no call of its own (marks repeat the call); inhibition, %; compound at 20 µM; confirmation repeats;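 mean of two retest wells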
# MT1-MMP act inh RFP – further read-out of MT1-MMP act inh, marked with its call; RFP signal change, %; measured here: RFP expression control read;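 0 = vehicle wells; hits needed this value within 50% of zero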
# * hit, by the source's call; i = inactive; ? = inconclusive; · = no result given.
SMILES,PABP polyA inh,CSC inhib,MT1-MMP act inh,MT1-MMP act inh RFP,UUG fidelity,Rce1 inh,HIV Env fusion,eIF4H FP inh,others
Cc1cccc(C)c1-n1nnnc1SCSc1nnnn1-c1c(C)cccc1C,-3.0,-3.0,-8.2,-5.3,-3.9,i,34.8,-14.9,
COc1ccc(N2C(=O)c3ccccc3NC2c2ccc(OC)c(COc3ccccn3)c2)cc1 (stereo not given),7.6,-4.3,-1.3,1.0,·,i,-9.7,-7.7,
CCCCNC(=O)C(C#N)c1nc2ccccc2nc1N1CCCC1 (stereo not given),14.3,·,·,·,·,i,·,-1.2,
O=C(NC(=S)Nc1ccccc1)C1CCCCC1,12.1,9.3,-1.6,-1.3,-13.9,i,-15.8,-5.6,
COc1ccccc1C(=O)CN1C(=O)NC2(CCCc3ccccc32)C1=O (stereo not given),·,-8.9,4.6,2.9,·,·,4.1,·,
O=C1C2CCCN2C(=S)N1c1ccccc1 (stereo not given),-8.1,3.2,-2.9,1.4,-14.8,i,-2.5,-6.4,
CCOC(=O)C1=C(C)N(CCCCCC(=O)O)C(=O)NC1c1ccccc1OC(=O)c1cccs1 (stereo not given),-3.5,6.4,·,·,·,·,2.0,-4.1,
Cn1c(-c2ccc(Br)o2)nc2ccccc21,4.3,28.7,0.1,1.2,-19.8,i,·,11.7,
CCCC(=O)Nc1ccc2c(c1)c1ccccc1n2CC,4.4,-4.1,2.8,-2.9,·,i,0.5,-4.3,
O=C(Cn1cnc2c(nnn2Cc2ccc(Cl)cc2)c1=O)NC1CCCC1,2.7,-8.2,4.3,7.2,-22.8,i,1.1,0.5,
Cc1ccc(NS(=O)(=O)c2ccc(OCC(N)=O)cc2)cc1,?,-7.6,-4.5,3.9,·,i,20.8,0.1,
COCCCNC(=O)CSc1nc2cc(C(=O)NCCOC)ccc2c(=O)n1Cc1ccc2c(c1)OCO2,4.0,-0.4,1.1,1.4,-1.8,i,-2.6,3.2,
CCOC(=O)c1[nH]c(C)c(C(=O)NCc2ccco2)c1C,-0.2,8.4,5.5,6.6,-9.3,i,-8.9,0.1,
O=C(CCN1CCOCC1)NC12CC3CC(CC(C3)C1)C2,2.9,-2.2,-1.3,-0.1,-15.8,i,-5.6,-5.9,
O=C(NCc1cccs1)C1CCN(S(=O)(=O)c2cccc3cccnc23)CC1,-3.6,-16.4,6.3,4.9,-0.7,i,-15.6,-5.8,
O=c1cnnc(SCCc2ccccc2)[nH]1,-5.4,-9.0,4.6,2.5,-5.5,i,-37.5,-1.1,
O=C(O)c1cccc(NCc2ccncc2)c1,-4.9,-6.3,·,·,·,i,·,-7.7,
Cc1nn(-c2ccccc2)c(C)c1NC(=O)COc1ccc2ccccc2c1,-6.7,24.1,-1.2,-9.9,-8.3,i,·,-7.2,
COc1cccc(N=C2C(=O)N3CCCc4cccc2c43)c1,-3.7,-10.1,5.7,6.2,·,i,-32.2,-8.5,
COC(=O)c1ccc(OCC(=O)Nc2ccsc2C(=O)OC)cc1,2.7,-8.8,-6.9,-1.4,-26.6,i,-21.9,-16.7,
CCOc1ccc(N(CC(=O)NCC2CCCO2)C(=O)CCC(=O)Nc2nccs2)cc1 (stereo not given),-5.3,0.7,1.0,1.5,-10.7,i,-0.2,-1.8,
O=C(O)CN(Cc1ccco1)S(=O)(=O)c1ccccc1,44.9,3.0,2.7,5.6,0.7,i,·,3.4,
C=CC(COCc1ccccc1)N(CC(=O)OC)S(=O)(=O)c1cc(Br)ccc1OC (stereo not given),·,·,1.4,-5.9,-6.6,·,18.1,·,
O=C(Nc1ccc2nn(-c3ccc(F)cc3)nc2c1)c1cccnc1,-24.7,7.9,1.7,-1.2,·,i,-33.9,-14.1,
COc1ccc2cc(/C=C/C(=O)N3CCN(CC(=O)N4CCCCCC4)CC3)ccc2c1,4.8,3.2,4.7,-4.5,-6.3,·,·,2.7,
O=C(Nc1ccccc1F)Nc1ccccc1N1CCCCC1,-5.1,-9.4,-10.0,-26.5,-6.0,i,31.3,-5.9,
Cc1cc(C)cc(N(C(=O)c2sc(C)nc2C)C(C(=O)NC(C)(C)C)c2ccncc2)c1 (stereo not given),11.9,6.8,-4.2,3.9,-7.1,i,33.5,2.3,
O=C(CCN1C(=O)C2C3CCC(C3)C2C1=O)Nc1ccccc1Cl (stereo not given),-4.5,-11.0,-4.6,0.1,-3.1,i,4.1,-1.9,
Cc1nn(Cc2cccc(C(=O)N3N=C(C(F)F)CC3(O)C(F)F)c2)c(C)c1[N+](=O)[O-] (stereo not given),6.3,-5.4,3.0,-8.7,-20.0,i,·,4.0,
CCN(CC)CCNC(C(=O)Nc1cc(C(F)(F)F)ccc1Cl)c1ccccc1 (stereo not given),6.6,-3.9,3.2,8.9,-15.2,i,-113.5,-5.2,
Cc1cc(C)c(NC(=O)COC(=O)Cc2cccs2)c(C)c1,·,·,0.4,3.3,·,i,14.8,·,
COC(=O)c1sccc1NC(=O)c1cc2c(s1)CCCC2,17.9,25.0,-5.1,1.6,-15.4,i,-117.9,9.4,
O=C(C[n+]1cccc2ccccc21)c1ccccc1,12.0,-21.8,-3.6,10.9,-14.6,i,0.4,?,
CCNC(=O)c1cccc(S(=O)(=O)N2CCCCCC2)c1,-7.9,-4.1,4.4,2.3,·,i,18.9,-6.5,
C=CCNC(=S)N/N=C/c1cn(-c2ccccc2)nc1-c1ccc(OC)cc1,6.4,-8.2,3.2,0.7,·,i,·,3.9,
O=C(Cn1nnc(-c2ccc3c(c2)OCO3)n1)Nc1ccccc1C(=O)O,50.1,-11.8,0.0,5.5,-8.8,i,-6.9,-7.4,eIF4H FP inh retest=-5.1;PABP polyA inh retest=22.7
O=C(NOCc1ccccc1)c1ccc([N+](=O)[O-])cc1,·,-6.8,4.1,2.3,-39.4,·,-29.3,·,
Cc1ccc(S(=O)(=O)NC2=NCN(Cc3ccccc3)CN2)cc1,17.5,-6.9,-0.4,4.3,-8.6,i,-22.7,-6.3,
O=C(CN1CCN(c2ccccc2O)CC1)Nc1cccnc1Cl,4.0,-5.4,1.5,-0.8,-7.6,i,-4.4,-10.4,
Cc1csc(=NC(=O)c2ccccc2)n1Cc1ccco1,14.2,17.1,3.2,-6.4,-16.0,i,·,-1.7,

# Among those listed so far, these contain fluorine.
SMILES,PABP polyA inh,CSC inhib,MT1-MMP act inh,MT1-MMP act inh RFP,UUG fidelity,Rce1 inh,HIV Env fusion,eIF4H FP inh,others
O=C(Nc1ccc2nn(-c3ccc(F)cc3)nc2c1)c1cccnc1,-24.7,7.9,1.7,-1.2,·,i,-33.9,-14.1,
O=C(Nc1ccccc1F)Nc1ccccc1N1CCCCC1,-5.1,-9.4,-10.0,-26.5,-6.0,i,31.3,-5.9,
Cc1nn(Cc2cccc(C(=O)N3N=C(C(F)F)CC3(O)C(F)F)c2)c(C)c1[N+](=O)[O-] (stereo not given),6.3,-5.4,3.0,-8.7,-20.0,i,·,4.0,
CCN(CC)CCNC(C(=O)Nc1cc(C(F)(F)F)ccc1Cl)c1ccccc1 (stereo not given),6.6,-3.9,3.2,8.9,-15.2,i,-113.5,-5.2,

# Retrieved by structure from above, two records:
SMILES,PABP polyA inh,CSC inhib,MT1-MMP act inh,MT1-MMP act inh RFP,UUG fidelity,Rce1 inh,HIV Env fusion,eIF4H FP inh,others
CCNC(=O)c1cccc(S(=O)(=O)N2CCCCCC2)c1,-7.9,-4.1,4.4,2.3,·,i,18.9,-6.5,
O=C(C[n+]1cccc2ccccc21)c1ccccc1,12.0,-21.8,-3.6,10.9,-14.6,i,0.4,?,

# (cont.)
SMILES,PABP polyA inh,CSC inhib,MT1-MMP act inh,MT1-MMP act inh RFP,UUG fidelity,Rce1 inh,HIV Env fusion,eIF4H FP inh,others
C=CCc1c(C)nc(-c2ccccc2)nc1N/N=C(\C)c1ccccc1,-2.8,28.3,-10.8,-2.9,-34.9,i,·,18.1,
FC(F)(F)c1ccncc1-c1nnc(C2CCCCC2)o1,2.7,-1.8,2.1,2.4,-2.5,i,-5.1,-3.1,
CCOC(=O)N1CCN(c2c(N3CCOCC3)c(=O)c2=O)CC1,6.4,1.6,1.4,4.2,-10.7,i,-9.9,4.6,
O=C(Nc1cccc(F)c1)C1C2C=CC3(CN(CCCN4CCOCC4)C(=O)C13)O2 (stereo not given),-8.5,·,1.8,3.5,-9.0,i,-10.8,-4.6,
Cc1oc(-c2ccc(Cl)cc2)nc1CS(=O)CC(=O)NC1CCCCCC1 (stereo not given),10.6,-7.3,-1.0,-5.3,-6.1,i,10.7,9.6,
CC[C@@]1(C(=O)OC)N[C@H](CN(C)C(=O)COc2ccccc2)[C@@H]2C(=O)N(C)C(=O)[C@@H]21,·,·,-1.8,2.8,-4.7,·,-1.2,·,
CC(C)C1Nc2ccc(C(=O)NC3CCCCC3)cc2NC1=O (stereo not given),-4.1,-7.4,2.7,4.6,·,i,·,-3.8,
Cc1ccc(S(=O)(=O)NCCC(=O)NCC(c2ccc(F)cc2)N2CCOCC2)cc1 (stereo not given),·,1.0,-3.8,-3.3,-11.2,·,·,·,
O=C(Cn1nnc(-c2ccc(Cl)cc2)n1)N1CCN(C(=O)c2ccco2)CC1,·,·,-0.4,-1.4,-2.7,·,-15.1,·,
O=C(NCc1cccc(Cl)c1)c1cc(=O)[nH]c2ccccc12,10.1,-11.9,-3.0,-0.9,-3.1,i,-36.4,8.5,
CCn1c(SCC(=O)Nc2cc(C)ccc2C)nnc1-c1cnccn1,-0.6,-4.7,-7.1,-2.4,-9.5,i,1.9,2.3,
O=S(=O)(c1cccc2nsnc12)N1CCCCC1,5.3,-5.6,-1.0,1.1,-0.4,i,-7.1,-12.4,
CCN(CC)S(=O)(=O)c1cc(Br)c(C)cc1OC,4.8,7.8,-1.7,-3.3,12.4,i,·,1.8,
CCOC(=O)c1c2ccccc2[n+]([O-])n1[C@@H](C)C(N)=O,·,-7.9,2.5,3.2,-9.8,i,-2.9,·,
COc1ccc(C(=O)NNC(=O)C(NC(=O)c2cc(OC)cc(OC)c2)C(C)C)cc1 (stereo not given),·,-6.0,2.2,-0.7,11.6,·,-6.8,·,
CCOc1ccc2nc(SCc3ccc(C(=O)OC)o3)[nH]c2c1,30.7,-0.8,2.9,0.7,-16.5,i,18.0,-6.8,
Fc1cnc(N2CCOCC2)nc1NCc1ccccc1,33.0,-6.6,-6.2,0.0,-6.6,i,-12.2,13.0,
COc1ccc(C(C(=O)NCC2CCCO2)N(Cc2cccs2)C(=O)c2snc(C(N)=O)c2N)cc1 (stereo not given),1.5,15.8,-8.1,0.8,-8.0,i,23.2,-4.3,
COc1cc(OC)cc(-c2c(-c3cccs3)c3cc(-c4cnc(N)nc4)ccc3n2C)c1,·,·,4.4,-2.6,-23.2,·,4.2,·,
Cc1[nH]c2ccccc2c1C(=O)CSc1nc2cc(S(=O)(=O)N3CCCCC3)ccc2o1,-9.5,-3.1,·,·,2.5,i,65.2*,-14.1,
O=c1c2cc(-c3ccccc3)sc2ncn1/N=C/c1ccco1,-3.7,·,-2.1,1.7,-14.9,i,·,-4.8,
CCOc1ccc(N(CC(=O)NC2CCCCC2C)S(=O)(=O)c2c(C)noc2C)cc1 (stereo not given),0.3,-3.8,-1.6,-1.9,-2.0,i,-1.1,-4.4,
O=C(NCCCN1CCCC1)[C@H](CSCc1ccccc1)N1Cc2ccccc2C1=O,-8.5,-17.9,-3.7,-4.1,·,i,0.5,-8.0,
COc1ccc(NC(=O)c2cc([N+](=O)[O-])ccc2O)cc1,6.1,82.3*,-4.8,-31.3,·,i,83.2*,-2.8,

# Screening data: PubChem BioAssay, several laboratories

# Not all compounds are listed; the hit share may differ from the screen's.
